From PubChem
A1 inh: inhibitors of the anti-apoptotic protein A1, read as caspase activation; MEF A1-2A-BIM cells, Caspase-Glo 3/7 luminescence, 3 h; percent of clofoctol response, vehicle zero; caspase activation, % (no concentration beside the values); 0.066% of 330,000 active; AID 2462;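 active means over half of replicate activation scores above 10%, or exactly half above 10 with the replicate mean above 10; inconclusive means replicate mean below 10 yet half the replicates above 10; inactive means over half of replicates below 10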;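 further: wells of about 30 µL received 50 nL stock; many hits fall short of the cut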
LANA-H2A inh: blocks KSHV LANA binding to histone H2A/H2B; Q9QR71; cell-free LANA-H2A/H2B peptide, fluorescence polarization; inhibition, % (no concentration beside the values); 0.6% of 320,000 active; in the data active means inhibition mostly above about 10%, no sharp cut-off; inactive means mostly below about 6.7%;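 further: stock transfer was 7.5 nL into about 10 µL; 0% = median of vehicle wells and 100% = median of positive control wells; one replicate is shown; the record names a cut of 25% in any replicate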
T cruzi inh: T. cruzi replication inhibition; T. cruzi beta-gal in NIH3T3, luminescence, 90 h; inhibition, % (concentration not given with the values); 1.4% of 300,000 active; AID 1885;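 active means mean inhibition across valid replicates above about 55%, limit read from the data; inconclusive means mean below that limit but half or more replicates reach it; inactive means mean below it, under half of replicates reach it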;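 further: signal also drops with host cell toxicity which is not excluded here; 0% = plate median of DMSO wells and 100% = zero luminescence signal; higher percent means less beta-gal luminescence so fewer parasites; stock transfer was 50 nL into about 50 µL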
Beta cell apopt: blocks beta cell apoptosis; INS-1E cytokine-induced death, ATP luminescence, 48 h; percent of positive-control rescue, neutral wells zero; protection from apoptosis, % (no concentration beside the values); 0.8% of 300,000 active;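 active means all replicates at 75% or more, or half of them and the mean; inconclusive means half reach 75% but not the mean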;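 further: 0% = cytokine-treated negative control wells and 100% = positive control rescue; higher means more ATP so stronger rescue from cytokine killing; wells of about 40 µL received 100 nL stock; the first replicate is given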
Beta2AR agonist: activates human beta-2 adrenergic receptor causing internalization | response, % (concentration not given with the values) | AID 504454 | 0.43% of 340,000 active | Am2.2-beta2AR cells, FAP receptor internalization, flow cytometry; reference of the scale not given here | P07550;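 active means response above a set limit, near 3 SD of response in nonfluorescent compounds, cut at about 42% in these data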;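 further: stock transfer was 100 nL into about 11 µL; a reference agonist was the positive control; negative values mostly stem from fluorescent compounds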
Target sequence (P07550 whole entry, looked up): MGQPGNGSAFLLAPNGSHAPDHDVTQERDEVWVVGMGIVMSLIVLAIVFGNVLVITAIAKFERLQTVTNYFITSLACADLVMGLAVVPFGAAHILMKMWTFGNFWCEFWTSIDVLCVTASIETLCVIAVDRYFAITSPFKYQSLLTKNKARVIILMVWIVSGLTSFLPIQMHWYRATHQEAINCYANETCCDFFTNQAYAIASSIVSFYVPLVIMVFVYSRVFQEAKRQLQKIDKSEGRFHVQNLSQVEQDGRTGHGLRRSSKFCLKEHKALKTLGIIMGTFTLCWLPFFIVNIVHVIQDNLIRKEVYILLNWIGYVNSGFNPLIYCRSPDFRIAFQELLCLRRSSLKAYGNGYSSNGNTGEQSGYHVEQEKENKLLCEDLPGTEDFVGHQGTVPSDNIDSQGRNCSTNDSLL
RanGTP-Imp inh: inhibitors of RanGTP-importin-beta interaction, primary screen, biochemical, FRET, CFP-Ran, YFP-importin-beta, homogeneous. cell-free CFP-Ran/YFP-importin-beta FRET ratio. inhibition, % (no concentration beside the values). 1.1% of 300,000 active. AID 2216;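 active means most replicates above 15%; inconclusive means exactly half above 15%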;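 further: 0% = DMSO wells and 100% = Ran loaded with GDP instead of GTP; wells of about 40 µL received 100 nL stock; the first replicate is given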
UCH37 DUB inh: human UCH37 deubiquitinating enzyme inhibition | Q9Y5K5 | purified proteasome/UCH37, Ub-AMC cleavage fluorescence | inhibition, % (concentration not given with the values) | 0.33% of 330,000 active;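 active means mean of two replicates above 20%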;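 further: 0% = compound-free wells with enzyme and 100% = wells lacking proteasome; stock transfer was 100 nL into about 20 µL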
Target sequence (Q9Y5K5 whole entry, looked up): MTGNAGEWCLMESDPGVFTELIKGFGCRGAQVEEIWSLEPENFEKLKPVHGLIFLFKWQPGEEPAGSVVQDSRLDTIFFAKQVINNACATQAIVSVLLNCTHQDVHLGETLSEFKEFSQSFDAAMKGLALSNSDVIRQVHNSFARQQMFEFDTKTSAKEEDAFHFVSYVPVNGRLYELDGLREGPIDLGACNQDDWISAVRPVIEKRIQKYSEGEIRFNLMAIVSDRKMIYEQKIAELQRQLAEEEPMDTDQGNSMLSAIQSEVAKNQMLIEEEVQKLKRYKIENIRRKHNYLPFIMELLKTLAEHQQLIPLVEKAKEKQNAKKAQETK
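Material: Human UCH37 enzyme supplied as purified proteasome complex | Schedule: 30 min preincubation with enzyme, 25 min cleavage at room temperature | Detection: AMC fluorescence 355/460 nm | Measure: % inhibition of Ub-AMC cleavage fluorescence | Controls: Wells without proteasome as full block, compound-free enzyme plus substrate as uninhibited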
Calb FLC: affects C. albicans growth with fluconazole. 0.57% of 300,000 active. growth inhibition, % (concentration not given with the values). AID 1979. C. albicans CaCi-2 (fluconazole-resistant clinical isolate) + fluconazole, Alamar Blue growth, 48 h;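 active means most replicates above 75%; inconclusive means exactly half above 75%; inactive means most below 75%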;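 further: all wells also contain fluconazole at 8 µg/ml as a sub-toxic cotreatment; 0% = median of DMSO wells and 100% = median of geldanamycin control wells; wells of about 8 µL received 7.5 nL stock; the first replicate is given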
* = called active by the depositor; ? = inconclusive; nt = not tested or not shown.

mol	A1 inh	LANA-H2A inh	T cruzi inh	Beta cell apopt	Beta2AR agonist	RanGTP-Imp inh	UCH37 DUB inh	Calb FLC
O=c1c(Cc2ccc(Cl)cc2)c(O)ccn1Cc1ccncc1	0.4	-2.9	2.8	-5.9	19.6	3.6	3.5	2.9
CCN(CC)c1ccc(CC(=O)NC(C)Cc2ccccc2)cc1 (stereo unspecified)	-0.2	5.7	-6.3	5.3	-2.2	-2.4	-3.1	-29.4
Cc1cccn2cc(-c3cccc(S(=O)(=O)N4CCCCC4)c3)nc12	1.1	3.3	-4.0	-2.0	-2.1	?	-6.7	4.5
CC(OC(=O)c1cc(S(=O)(=O)N2CCOCC2)ccc1F)C(=O)NCc1ccc2c(c1)OCO2 (stereo unspecified)	1.8	-2.5	-7.4	-4.5	5.1	3.0	1.9	6.2
O=C(NN1C(=O)C2C3CCC(O3)C2C1=O)c1ccc(Cl)cc1 (stereo unspecified)	-0.4	-1.7	-4.1	-6.8	-4.3	5.3	1.6	16.1
COc1cc(CN2CCNC(=O)C2CC(=O)N2CCc3ccccc3C2)cc(OC)c1 (stereo unspecified)	-0.1	-0.1	-3.9	-0.6	-3.1	-0.5	-0.4	-16.7
O=C(NCc1ccc(Cl)cc1)c1cc2ccccn2n1	0.4	-0.4	-11.2	-8.2	3.3	0.9	0.4	-3.2
Cc1occc1-c1nnc(SCC(=O)NCCc2ccccc2)n1Cc1ccccc1	?	-2.3	-21.9	1.4	-5.3	0.3	1.7	0.1
O=C(NCC1(N2CCCCC2)CCCCC1)c1cccc(NS(=O)(=O)c2ccccc2)c1	-0.1	6.7	2.6	-1.1	10.3	5.2	0.5	-3.2
C=CCSc1ncccc1C(=O)NCc1ccc(C)cc1	1.5	1.5	10.8	-2.3	-3.9	1.6	1.4	7.2
COCC(=O)OCC(=O)c1cc(C)n(-c2ccc(Br)cc2)c1C	-0.1	-1.2	-2.3	-12.8	-2.3	-5.4	1.7	0.3
Cc1cc(C)n2c(SCc3ccccc3Cl)nnc2n1	0.2	-4.3	8.1	-6.1	-21.9	6.2	0.9	-76.0
CCc1ccccc1NC(=S)N1N=CCC1c1ccccc1 (stereo unspecified)	0.6	0.7	5.5	0.9	4.8	-0.1	nt	5.8
Cc1ccc(Nc2nc(NCC3CCCO3)nc(N)c2[N+](=O)[O-])cc1C (stereo unspecified)	-0.7	3.5	-2.8	-2.4	-8.9	5.2	5.8	-12.6
COc1cccc(C(C)NC(=O)C2CCCC2)c1 (stereo unspecified)	0.6	1.9	5.8	-1.2	1.5	-0.5	0.8	-6.7

Full records, looked up by structure:
O=C(NCC1(N2CCCCC2)CCCCC1)c1cccc(NS(=O)(=O)c2ccccc2)c1 as listed: A1 inh = -0.1; LANA-H2A inh = 6.7; T cruzi inh = 2.6; Beta cell apopt = -1.1; Beta2AR agonist = 10.3; RanGTP-Imp inh = 5.2; UCH37 DUB inh = 0.5; Calb FLC = -3.2
Cc1ccc(Nc2nc(NCC3CCCO3)nc(N)c2[N+](=O)[O-])cc1C (stereo unspecified) as listed: A1 inh = -0.7; LANA-H2A inh = 3.5; T cruzi inh = -2.8; Beta cell apopt = -2.4; Beta2AR agonist = -8.9; RanGTP-Imp inh = 5.2; UCH37 DUB inh = 5.8; Calb FLC = -12.6

Following part:
mol	A1 inh	LANA-H2A inh	T cruzi inh	Beta cell apopt	Beta2AR agonist	RanGTP-Imp inh	UCH37 DUB inh	Calb FLC
C/C(Cl)=C\Cn1c(O)c(N=NC(N)=S)c2cc(Br)ccc21	-1.2	-0.5	76.7*	29.9	3.1	-1.1	4.5	?
CC(NC(=O)C1CC2CCCC(C1)C2=O)c1ccccc1 (stereo unspecified)	0.2	-3.1	-5.3	-3.9	-4.2	5.4	1.3	-2.9
CCN(CC)C(=O)c1sc(N2C(=O)Nc3ccccc3N2O)c(C(=O)OC)c1C	-1.4	-1.1	-10.9	-2.8	3.9	-0.5	5.1	3.2
CCn1nnc2cc(C(=O)N3CCC(C(=O)OC)CC3)ccc21	0.5	-3.1	nt	-5.6	2.9	nt	4.5	nt
CN1CCN(CC(=O)N2N=C(c3cccs3)CC2c2ccco2)CC1 (stereo unspecified)	-1.8	-3.2	-13.3	0.5	1.9	2.9	-1.0	6.0
CCCCOc1ccc(N2C(=O)CC(NCCc3ccc(S(N)(=O)=O)cc3)C2=O)cc1 (stereo unspecified)	0.1	0.2	-1.8	-2.9	-8.2	-3.1	0.3	7.0
CCOc1ccc(N(CC(=O)NC(C(C)C)C(C)C)S(=O)(=O)c2ccc(OC)c(OC)c2)cc1	0.3	-3.7	16.3	-4.2	0.7	-4.6	-0.4	0.6
COc1ccccc1NC(=O)C(C)N(C)CC(=O)Nc1cccc2ccccc12 (stereo unspecified)	0.5	3.3	nt	4.8	3.2	nt	1.4	nt
CC(=O)Nc1ccc(S(=O)(=O)N2CCC(c3nc4c(nnn4Cc4ccccc4Cl)c(=O)[nH]3)CC2)cc1	0.6	1.3	0.4	nt	-8.4	0.8	0.3	9.8
N#C/C(=C\c1ccccc1)C(=O)NC1CC1	0.9	-4.8	-3.9	nt	12.4	-14.1	-0.1	-0.5
CCCNC(=S)N1CCC(C(=O)c2ccc(OC)cc2)CC1	-0.3	-2.6	-12.5	0.0	-4.8	0.9	2.6	-9.3
CCC(CC)c1nnc(NC(=O)c2cc(C(=O)OC)cc([N+](=O)[O-])c2)s1	-1.3	-2.1	16.3	8.2	-4.8	2.1	0.7	9.4
COc1ccc(N(C)S(=O)(=O)c2cccc(C(=O)Nc3ccc(-n4cnnn4)cc3)c2)cc1	0.2	-0.6	5.8	6.1	23.4	6.5	3.3	25.9
CCN(C(=O)Cc1ccc(Br)cc1)C1CCCCC1	-0.4	-2.3	8.9	-5.3	-0.2	-1.5	2.6	-3.9
CCCc1cc(=O)oc2cc(C)cc(OCC(=O)Nc3ccc(S(N)(=O)=O)cc3)c12	3.3	2.4	-8.2	14.1	19.7	6.3	-8.9	3.3
O=C1Cn2c(nc3ccccc32)-c2ccccc2N1	0.1	-3.0	-3.7	4.4	-4.6	10.8	-4.4	0.0
CN1CCN(c2ccccc2NC(=O)c2ccccc2F)CC1	-0.2	-3.6	-5.1	-10.2	-0.2	1.5	2.9	-2.6
COc1ccc2oc(C(=O)N(Cc3ccco3)Cc3cccs3)c(C)c2c1	-0.8	-1.5	27.9	-7.3	5.8	0.9	2.1	-6.9
COc1ccc(-c2cc(C(=O)Nc3ccc(S(=O)(=O)Nc4onc(C)c4C)cc3)c3ccccc3n2)cc1OC	-0.5	-4.2	-15.5	5.0	11.3	1.0	-23.6	-4.0
CC(C)CNC(=O)c1cc2nc3c(c(C(F)(F)F)n2n1)CCc1ccccc1-3	0.2	0.1	11.1	3.7	-5.7	3.2	-9.2	8.8
COc1cc(NC(=O)c2ccccc2)c(OC)cc1NC(=O)CSc1[nH]c(=O)cc(C)c1C#N	-0.3	-3.5	-16.7	3.8	36.8	0.5	-11.7	1.3
CCOc1ccc(C(=O)Nc2ccc(C(F)(F)F)n(C)c2=O)cc1	0.3	-5.1	-18.1	-15.2	-0.8	-1.6	-20.2	15.6
N#C/C(=C/c1ccc(C(=O)O)cc1)C(=O)NCc1ccccc1	-0.5	2.5	-8.3	-3.1	3.7	2.5	0.9	-28.0
Cc1ccccc1Cn1c(=O)n(CCCC(=O)NCc2ccco2)c(=O)c2ccccc21	0.4	nt	14.3	9.0	-1.0	1.1	3.8	-2.8
O=[N+]([O-])c1ccc([C@H](O)[C@H](CO)N=Cc2ccccc2O)cc1	0.9	5.4	-21.9	1.8	0.4	0.7	0.9	10.9
CN1CCC(N(C)S(=O)(=O)c2ccc(NC(=O)COc3ccc(F)cc3)cc2)CC1	0.1	0.7	57.6*	nt	-3.0	-1.1	-0.2	-6.4
O=S(=O)(Cc1ccc(Cl)cc1)Nc1ccc2c(c1)OCO2	1.8	0.2	34.0	-0.4	3.7	19.0*	5.7	-31.3
Nc1nc(-c2ccc(-c3ccccc3)cc2)cs1	1.3	-3.9	-25.5	3.4	1.0	-1.9	-22.8	4.9
COC(=O)C1=C(C)N(C)C(=O)/C1=C\c1ccco1	-0.2	-4.7	5.3	nt	-4.6	-4.4	8.0	6.2
CCOc1ccc(N2C(=O)C3Sc4[nH]c(=O)sc4C(c4ccc(OC)c(OC)c4)C3C2=O)cc1 (stereo unspecified)	-0.2	-7.0	-6.3	-7.5	-1.4	-1.5	2.5	-6.9
Cc1onc(-c2ccccc2Cl)c1C(=O)NCc1cccs1	0.3	4.9	-4.7	-1.8	1.4	1.0	0.1	19.0
CN(Cc1c(F)cccc1Cl)C(=O)C1=CC=CN2CCS(=O)(=O)N=C12	0.6	-2.6	nt	-4.6	-5.0	nt	-19.0	nt

By substructure: those above with an aryl methoxy group
mol	A1 inh	LANA-H2A inh	T cruzi inh	Beta cell apopt	Beta2AR agonist	RanGTP-Imp inh	UCH37 DUB inh	Calb FLC
COc1cc(CN2CCNC(=O)C2CC(=O)N2CCc3ccccc3C2)cc(OC)c1 (stereo unspecified)	-0.1	-0.1	-3.9	-0.6	-3.1	-0.5	-0.4	-16.7
COc1cccc(C(C)NC(=O)C2CCCC2)c1 (stereo unspecified)	0.6	1.9	5.8	-1.2	1.5	-0.5	0.8	-6.7
CCOc1ccc(N(CC(=O)NC(C(C)C)C(C)C)S(=O)(=O)c2ccc(OC)c(OC)c2)cc1	0.3	-3.7	16.3	-4.2	0.7	-4.6	-0.4	0.6
COc1ccccc1NC(=O)C(C)N(C)CC(=O)Nc1cccc2ccccc12 (stereo unspecified)	0.5	3.3	nt	4.8	3.2	nt	1.4	nt
CCCNC(=S)N1CCC(C(=O)c2ccc(OC)cc2)CC1	-0.3	-2.6	-12.5	0.0	-4.8	0.9	2.6	-9.3
COc1ccc(N(C)S(=O)(=O)c2cccc(C(=O)Nc3ccc(-n4cnnn4)cc3)c2)cc1	0.2	-0.6	5.8	6.1	23.4	6.5	3.3	25.9
COc1ccc2oc(C(=O)N(Cc3ccco3)Cc3cccs3)c(C)c2c1	-0.8	-1.5	27.9	-7.3	5.8	0.9	2.1	-6.9
COc1ccc(-c2cc(C(=O)Nc3ccc(S(=O)(=O)Nc4onc(C)c4C)cc3)c3ccccc3n2)cc1OC	-0.5	-4.2	-15.5	5.0	11.3	1.0	-23.6	-4.0
COc1cc(NC(=O)c2ccccc2)c(OC)cc1NC(=O)CSc1[nH]c(=O)cc(C)c1C#N	-0.3	-3.5	-16.7	3.8	36.8	0.5	-11.7	1.3
CCOc1ccc(N2C(=O)C3Sc4[nH]c(=O)sc4C(c4ccc(OC)c(OC)c4)C3C2=O)cc1 (stereo unspecified)	-0.2	-7.0	-6.3	-7.5	-1.4	-1.5	2.5	-6.9
